Mtb hypoxia rep: reduces hypoxia-regulated biosensor signal in M. tuberculosis; M. tuberculosis hypoxia-regulated fluorescent reporter, fluorescence; fluorescence inhibition, % (test concentration not listed); actives 0.1% (n = 300,000);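 active = 35 to 45% if threefold the growth effect, above 45% if 1.5-fold the growth effect; inactive = the rest, general growth blockers included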;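 note: wells of about 50 µL received 100 nL stock; 0% = vehicle wells and 100% = reference inhibitor wells; whole bacteria with a GFP reporter of the hypoxia response; strong numbers were not always called active; many hits fall short of the cut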
BJeLR lethal: kills HRASV12-expressing BJeLR cells; actives 0.17% (n = 300,000); AID 1554; BJeLR (HRASV12) viability, CellTiter-Glo ATP luminescence, 48 h; reference of the scale not given here; inhibition, % (test concentration not listed);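 active = replicate mean above 50%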;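 note: 50 nL library stock added to about 25 µL; numbers are from one replicate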
Sa RN4220 lethal: S. aureus RN4220 growth inhibition; OD600, 16 h; inhibition, % (test concentration not listed); actives 0.33% (n = 330,000); AID 1259311;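 active = z-score of -3 or lower and OD600 up to 0.18 on both plates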;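 note: plate controls were untreated cells for no effect and reference antibiotic for full effect; stock transfer was 100 nL into about 80 µL; one replicate is shown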
PrP UTR inh: inhibition of PrP 5' UTR reporter expression. actives 0.35% (n = 340,000). cell-based PrP 5' UTR mRNA reporter, plate reader. inhibition, % (no concentration beside the values);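 active = every replicate at 50% or more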;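 note: 0 = median of the neutral control wells; tested in H4 reporter cells; numbers are from one replicate; inactives centre near -14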
Sa ugtP lethal: growth inhibition of S. aureus ugtP deletion strain. AID 1259309. actives 0.54% (n = 330,000). S. aureus RN4220 ugtP deletion, OD600 growth, 16 h; some inactives read as strong as hits. growth inhibition, % (no concentration beside the values);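 active = z-score under -3 and OD600 up to 0.15 on both plates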;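 note: plate controls were untreated wells for no effect and antibiotic for full effect; wells of about 80 µL received 100 nL stock; the first replicate is given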
Autofluor counter: flagged as autofluorescent in microsphere protease counterscreen | AID 624483 | compound autofluorescence counterscreen, microsphere flow cytometry; stronger effect = higher value | actives 3.1% (n = 360,000) | fluorescence intensity (no concentration beside the values);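 active = at least 3 SD above the mean of all compounds, about 16000 in these data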;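 note: 100 nL of 1 mM stock went into each well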
Mtb hypoxia rep growth: second read-out of Mtb hypoxia rep, no call of its own (marks repeat the call); growth inhibition, %; measured here: M. tuberculosis growth (absorbance);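 0% = vehicle and 100% = reference antibiotic; read after six days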
* hit, by the source's call. This is a random part of the collection; 4.1% or so of the library scored in one or more.

For O=S(=O)(c1ccc(Br)cc1)c1nc(-c2ccco2)oc1NCCCn1ccnc1 the results were Mtb hypoxia rep 8, Sa RN4220 lethal -5.4, PrP UTR inh -8, Sa ugtP lethal 6, Autofluor counter 6326 and Mtb hypoxia rep growth 0.
`O=C(NN=Cc1cc([N+](=O)[O-])ccc1N1CCNCC1)c1ccc([N+](=O)[O-])cc1` gave Mtb hypoxia rep -14, Sa RN4220 lethal -1.4, Sa ugtP lethal -1 and Mtb hypoxia rep growth 3.
For CCCN(CC(=O)Nc1ccccc1C)C(=O)c1nn(CC)c(=O)c2ccccc12 the results were Mtb hypoxia rep 4, Sa RN4220 lethal -2.5, PrP UTR inh 4, Sa ugtP lethal 4, Autofluor counter 2875 and Mtb hypoxia rep growth -3.
Screening CCCn1c(SCc2ccccn2)nc2c1c(=O)n(C)c(=O)n2C returned Mtb hypoxia rep -3, BJeLR lethal -4, Sa RN4220 lethal 2.1, PrP UTR inh -12, Sa ugtP lethal 2, Autofluor counter 5238 and Mtb hypoxia rep growth 5.
CCN(CC)S(=O)(=O)c1cccc(C(=O)N[C@H](C(=O)OCC(=O)Nc2ccccc2)C(C)C)c1 was read as Mtb hypoxia rep 6, BJeLR lethal -5, Sa RN4220 lethal 6.6, PrP UTR inh -19, Sa ugtP lethal 19, Autofluor counter 3440 and Mtb hypoxia rep growth 5.
Screening COc1cc(C=O)ccc1OCc1ccncc1 returned Mtb hypoxia rep 2, BJeLR lethal 3, Sa RN4220 lethal 0.3, PrP UTR inh -7, Sa ugtP lethal -3, Autofluor counter 4400 and Mtb hypoxia rep growth 2.
`CCOc1ccc(N2CC(C(=O)Nc3ccc4c(c3)OCO4)CC2=O)cc1` (configuration not stated) gave Mtb hypoxia rep 14, BJeLR lethal -1, Sa RN4220 lethal 2.9, PrP UTR inh -23, Sa ugtP lethal 5, Autofluor counter 3840 and Mtb hypoxia rep growth 0.
Cc1ccc(S(=O)(=O)NC(N)=NCCc2ccc(Cl)cc2)cc1C was read as Mtb hypoxia rep -5, BJeLR lethal -22, Sa RN4220 lethal 1.4, PrP UTR inh 1, Sa ugtP lethal 2, Autofluor counter 2429 and Mtb hypoxia rep growth 2.
Brc1ccc2ncnc(Nc3ccc(N4CCOCC4)cc3)c2c1 was read as Mtb hypoxia rep 25, BJeLR lethal -3, Sa RN4220 lethal 0.9, PrP UTR inh -2, Sa ugtP lethal -6, Autofluor counter 9003 and Mtb hypoxia rep growth 14.
`CN(C)c1ccc(/C=N/NC(=O)C[n+]2ccccc2)cc1` gave BJeLR lethal 6, PrP UTR inh -12 and Autofluor counter 3464.
`COc1cc(C(c2c(O)nc(SC)[nH]c2=O)c2c(O)nc(SC)[nH]c2=O)cc(OC)c1OC` gave Mtb hypoxia rep 2, BJeLR lethal -7, Sa RN4220 lethal 2.5, PrP UTR inh -29, Sa ugtP lethal 2, Autofluor counter 3628 and Mtb hypoxia rep growth -1.
O=C1C2C3c4ccccc4C(c4ccccc43)C2c2nc3ccccc3n21 (configuration not stated) was read as Mtb hypoxia rep 8, BJeLR lethal 0, Sa RN4220 lethal 0.7, PrP UTR inh -12, Sa ugtP lethal 10, Autofluor counter 3421 and Mtb hypoxia rep growth 13.
Screening Cc1cc(C)cc(N(C(=O)c2snc(C(N)=O)c2N)C(C(=O)NCC2CCCO2)c2ccc(C)o2)c1 (configuration not stated) returned Mtb hypoxia rep -1, BJeLR lethal -1, Sa RN4220 lethal -2.3, PrP UTR inh 1, Sa ugtP lethal 8, Autofluor counter 5475 and Mtb hypoxia rep growth 4.
For CCNC(=S)Nc1ccc(N2CCCCC2)cc1 the results were Mtb hypoxia rep 21, BJeLR lethal 11, Sa RN4220 lethal 2.5, PrP UTR inh -33, Sa ugtP lethal 2, Autofluor counter 3379 and Mtb hypoxia rep growth 18.
COc1ccc(NC(=S)N(CCC(C)C)C(C)c2ccncc2)cc1 (configuration not stated) was read as Mtb hypoxia rep 12, BJeLR lethal 1, Sa RN4220 lethal 2.1, PrP UTR inh -11, Sa ugtP lethal 3, Autofluor counter 5949 and Mtb hypoxia rep growth 9.
Screening N#Cc1ccc(OCCN2C(=O)NC3(CCSC3)C2=O)cc1 (configuration not stated) returned Mtb hypoxia rep 3, BJeLR lethal 6, Sa RN4220 lethal 3.7, PrP UTR inh -6, Sa ugtP lethal 0, Autofluor counter 4250 and Mtb hypoxia rep growth 2.
For O=C(Cn1c(=O)oc2cc(S(=O)(=O)N3CCCC3)ccc21)NC1CCCCC1 the results were Mtb hypoxia rep -2, BJeLR lethal 2, Sa RN4220 lethal 3.9, PrP UTR inh 6, Sa ugtP lethal -4, Autofluor counter 4536 and Mtb hypoxia rep growth 11.
`CCOC(=O)c1cccc(C2=CC(=O)CC(C)(C)C2)c1` gave Mtb hypoxia rep 0, Sa RN4220 lethal 15, PrP UTR inh -9, Sa ugtP lethal 7, Autofluor counter 3586 and Mtb hypoxia rep growth -1.
`CCOC(=O)C1(C)NC(c2ccccc2F)C2C(=O)N(CC)C(=O)C21` (configuration not stated) gave Mtb hypoxia rep 7, BJeLR lethal -8, Sa RN4220 lethal 8.0, PrP UTR inh 2, Sa ugtP lethal 4, Autofluor counter 3380 and Mtb hypoxia rep growth 11.
For COc1ccc(S(=O)(=O)N2CCC(C(=O)N3CCc4ccccc4C3)CC2)cc1Cl the results were Mtb hypoxia rep -6, BJeLR lethal -9, Sa RN4220 lethal -6.5, PrP UTR inh -17, Sa ugtP lethal -12, Autofluor counter 9480 and Mtb hypoxia rep growth 3.
Screening CC1CCN(C(=O)CN2C(=O)c3ccccc3S2(=O)=O)CC1 returned Mtb hypoxia rep 11, BJeLR lethal 3, Sa RN4220 lethal 1.1, PrP UTR inh -39, Sa ugtP lethal 1, Autofluor counter 4081 and Mtb hypoxia rep growth 4.
For COc1ccc(/C=C/C(=O)c2ccccc2)cc1COc1ccccc1F the results were Mtb hypoxia rep 11, BJeLR lethal -6, Sa RN4220 lethal 1.0, PrP UTR inh -14, Sa ugtP lethal 18, Autofluor counter 16023 and Mtb hypoxia rep growth 4.
Screening COc1ccc(CCNC(=O)C(=O)NCC2OCCN2S(=O)(=O)c2ccccc2)cc1OC (configuration not stated) returned Mtb hypoxia rep 5, BJeLR lethal -27, Sa RN4220 lethal -12, PrP UTR inh -24, Sa ugtP lethal 0, Autofluor counter 5066 and Mtb hypoxia rep growth 4.
COc1ccccc1-n1cnc2cc(NS(=O)(=O)c3ccc(Br)cc3)ccc21 was read as Mtb hypoxia rep 17, BJeLR lethal -6, Sa RN4220 lethal -8.1, PrP UTR inh -36, Sa ugtP lethal -14, Autofluor counter 9806 and Mtb hypoxia rep growth 5.
COc1ccc(OC)c(CN2CCN(C(=O)CNC(=O)c3ccc(C(C)(C)C)cc3)CC2)c1 was read as Mtb hypoxia rep 7, Sa RN4220 lethal 3.0, PrP UTR inh -15, Sa ugtP lethal 1, Autofluor counter 4043 and Mtb hypoxia rep growth -1.
For COc1ccccc1OCCC(=O)OCC(=O)NCc1ccc(F)cc1 the results were Mtb hypoxia rep 22, Sa RN4220 lethal 4.5, PrP UTR inh 88*, Sa ugtP lethal 4, Autofluor counter 3177 and Mtb hypoxia rep growth 45.
CCC(C)NC(=O)C1CCN(CCCc2ccccc2)CC1 (configuration not stated) was read as Mtb hypoxia rep 8, BJeLR lethal -16, Sa RN4220 lethal 3.5, PrP UTR inh -15, Sa ugtP lethal 16, Autofluor counter 3633 and Mtb hypoxia rep growth 7.
For COc1ccc(C(=O)N2CCN(C(=O)c3ccco3)CC2)cc1 the results were BJeLR lethal -2, Sa RN4220 lethal -2.2, PrP UTR inh -13, Sa ugtP lethal -1 and Autofluor counter 4289.
Screening Cc1cccc(NC(=S)N2CCC(N(C)CC3CCCO3)CC2)c1C (configuration not stated) returned Mtb hypoxia rep 0, BJeLR lethal 13, Sa RN4220 lethal -2.4, PrP UTR inh -37, Sa ugtP lethal 2, Autofluor counter 8354 and Mtb hypoxia rep growth 1.
`O=C1C(C=NCc2ccncc2)=C(O)c2ccccc21` gave Mtb hypoxia rep 16, BJeLR lethal -1, Sa RN4220 lethal 6.7, PrP UTR inh -1, Sa ugtP lethal 3, Autofluor counter 2532 and Mtb hypoxia rep growth 6.

A section taken from the entries so far:
For COc1ccc(C(=O)N2CCN(C(=O)c3ccco3)CC2)cc1 the results were BJeLR lethal -2, Sa RN4220 lethal -2.2, PrP UTR inh -13, Sa ugtP lethal -1 and Autofluor counter 4289.
Screening Cc1cccc(NC(=S)N2CCC(N(C)CC3CCCO3)CC2)c1C (configuration not stated) returned Mtb hypoxia rep 0, BJeLR lethal 13, Sa RN4220 lethal -2.4, PrP UTR inh -37, Sa ugtP lethal 2, Autofluor counter 8354 and Mtb hypoxia rep growth 1.

Next part:
Screening Cc1ccc(S(=O)(=O)N2CCOCC2)cc1NC(=O)COC(=O)c1cncc(Br)c1 returned Mtb hypoxia rep 9, Sa RN4220 lethal 3.0, PrP UTR inh -13, Sa ugtP lethal 1 and Mtb hypoxia rep growth 1.
O=C(O)C1Cc2ccccc2CN1C(=O)c1ccccc1Cl (configuration not stated) was read as Mtb hypoxia rep 13, BJeLR lethal 4, Sa RN4220 lethal 6.0, PrP UTR inh -38, Sa ugtP lethal 4, Autofluor counter 2819 and Mtb hypoxia rep growth 7.
For Cc1ccc(C(=O)CSc2nnc(N)s2)c(C)c1 the results were Mtb hypoxia rep 1, BJeLR lethal 6, Sa RN4220 lethal 6.4, PrP UTR inh 24, Sa ugtP lethal 3, Autofluor counter 4139 and Mtb hypoxia rep growth 8.
For CCC1Oc2ccc(C)cc2N(CC(=O)NCC2CCCO2)C1=O (configuration not stated) the results were Mtb hypoxia rep 7, BJeLR lethal 0, Sa RN4220 lethal 0.8, PrP UTR inh -7, Sa ugtP lethal 12, Autofluor counter 5167 and Mtb hypoxia rep growth 16.
For COc1cc(-c2noc(-c3ccco3)n2)cc(OC)c1OC the results were Mtb hypoxia rep 15, BJeLR lethal 3, Sa RN4220 lethal 13, PrP UTR inh -33, Sa ugtP lethal 0, Autofluor counter 3903 and Mtb hypoxia rep growth 16.
For COc1ccc(CC2(CO)CCN(Cc3cnn(-c4ccc(F)cc4)c3)CC2)cc1 the results were Mtb hypoxia rep 1, BJeLR lethal 8, Sa RN4220 lethal 2.3, PrP UTR inh -24, Sa ugtP lethal -1, Autofluor counter 4783 and Mtb hypoxia rep growth 14.
Screening COc1ccc2cc(C(=O)NCc3ccccc3)[nH]c2c1 returned Mtb hypoxia rep 1, BJeLR lethal -2, Sa RN4220 lethal 0.2, PrP UTR inh -28, Sa ugtP lethal 6, Autofluor counter 3989 and Mtb hypoxia rep growth -11.
Screening CCOC(=O)c1cc(C(=O)c2ccccc2O)cn2c(=O)c3c(C)c(C)sc3nc12 returned Mtb hypoxia rep 14, BJeLR lethal -1, Sa RN4220 lethal -2.9, Sa ugtP lethal 5 and Mtb hypoxia rep growth 2.
`CC1CCCN(C(=O)CSc2nc3ncccc3[nH]2)C1` (configuration not stated) gave Mtb hypoxia rep -8, Sa RN4220 lethal 2.5, PrP UTR inh -4, Sa ugtP lethal 4, Autofluor counter 3157 and Mtb hypoxia rep growth 9.
Screening O=C(CSc1cn(CCNC(=O)c2ccc3ccccc3c2)c2ccccc12)NCc1ccco1 returned Mtb hypoxia rep 5, BJeLR lethal -7, Sa RN4220 lethal -17, PrP UTR inh 58*, Sa ugtP lethal -7, Autofluor counter 4313 and Mtb hypoxia rep growth 13.

Ordered by SMILES length (highest first): three of the compounds above.
Screening CCOC(=O)c1cc(C(=O)c2ccccc2O)cn2c(=O)c3c(C)c(C)sc3nc12 returned Mtb hypoxia rep 14, BJeLR lethal -1, Sa RN4220 lethal -2.9, Sa ugtP lethal 5 and Mtb hypoxia rep growth 2.
O=C(O)C1Cc2ccccc2CN1C(=O)c1ccccc1Cl (configuration not stated) was read as Mtb hypoxia rep 13, BJeLR lethal 4, Sa RN4220 lethal 6.0, PrP UTR inh -38, Sa ugtP lethal 4, Autofluor counter 2819 and Mtb hypoxia rep growth 7.
For Cc1ccc(C(=O)CSc2nnc(N)s2)c(C)c1 the results were Mtb hypoxia rep 1, BJeLR lethal 6, Sa RN4220 lethal 6.4, PrP UTR inh 24, Sa ugtP lethal 3, Autofluor counter 4139 and Mtb hypoxia rep growth 8.

Screening results as filed in PubChem.
